Screening data deposited in PubChem BioAssay by several laboratories.
Sa ugtP lethal – kills S. aureus RN4220 lacking UgtP | S. aureus RN4220 ugtP deletion, OD600 growth, 16 h; some inactives read as strong as hits | growth inhibition, % (concentration not given with the values) | hit rate 0.54% among 330,000;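 active = z-score under -3 and OD600 up to 0.15 on both plates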;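 also: plate controls were untreated wells for no effect and antibiotic for full effect; wells of about 80 µL received 100 nL stock; the first replicate is given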
BJeLR lethal – kills HRASV12-expressing BJeLR cells | BJeLR (HRASV12) viability, CellTiter-Glo ATP luminescence, 48 h; reference of the scale not given here | inhibition, % (concentration not given with the values) | hit rate 0.17% among 300,000 | AID 1554;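 active = replicate mean above 50%; inconclusive = above 50% but judged a plate artefact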;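 also: 50 nL library stock added to about 25 µL; numbers are from one replicate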
PrP UTR inh – suppresses PrP 5' UTR mRNA reporter expression; cell-based PrP 5' UTR mRNA reporter, plate reader; inhibition, % (no concentration beside the values); hit rate 0.35% among 340,000; AID 488862;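 active = every replicate at 50% or more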;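 also: 0 = median of the neutral control wells; tested in H4 reporter cells; numbers are from one replicate; inactives centre near -14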
Sa RN4220 lethal – kills Staphylococcus aureus RN4220; S. aureus RN4220 growth, OD600, 16 h; inhibition, % (concentration not given with the values); hit rate 0.33% among 330,000; AID 1259311;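 active = z-score of -3 or lower and OD600 up to 0.18 on both plates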;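 also: plate controls were untreated cells for no effect and reference antibiotic for full effect; stock transfer was 100 nL into about 80 µL; one replicate is shown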
Mtb hypoxia inh – reduces hypoxia-regulated biosensor signal in M. tuberculosis | M. tuberculosis hypoxia-regulated fluorescent reporter, fluorescence | fluorescence inhibition, % (no concentration beside the values) | hit rate 0.1% among 300,000;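 active = 35 to 45% if threefold the growth effect, above 45% if 1.5-fold the growth effect; inactive = the rest, general growth blockers included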;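 also: wells of about 50 µL received 100 nL stock; 0% = vehicle wells and 100% = reference inhibitor wells; whole bacteria with a GFP reporter of the hypoxia response; strong numbers were not always called active; many hits fall short of the cut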
Bead autofluor – compound fluorescence in toxin protease inhibitor counterscreen. compound autofluorescence counterscreen, microsphere flow cytometry; active compounds read high. fluorescence intensity (concentration not given with the values). hit rate 3.1% among 360,000;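 active = at least 3 SD above the mean of all compounds, about 16000 in these data; inconclusive = too few beads counted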;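 also: 100 nL of 1 mM stock went into each well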
Mtb hypoxia inh growth – also measured in Mtb hypoxia inh; calls as there; growth inhibition, %; measured here: M. tuberculosis growth (absorbance);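 0% = vehicle and 100% = reference antibiotic; read after six days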
An asterisk follows results filed as active; u = inconclusive; x = not tested or not shown; & = joins results of further samples.

The opening two records as a preview:
Compound,Sa ugtP lethal,BJeLR lethal,PrP UTR inh,Sa RN4220 lethal,Mtb hypoxia inh,Mtb hypoxia inh growth,Bead autofluor
CCOC(=O)C(Cc1ccccc1)NC(=O)CCc1nnc2ccc(N3CCCC3)nn12 (centres undefined),-5,14,-25,5.0,17,3,5952
O=C(C=Cc1ccccc1)c1ccoc1,2,x,x,16,19,28,x

The whole of this part, from the start:
Compound,Sa ugtP lethal,BJeLR lethal,PrP UTR inh,Sa RN4220 lethal,Mtb hypoxia inh,Mtb hypoxia inh growth,Bead autofluor
CCOC(=O)C(Cc1ccccc1)NC(=O)CCc1nnc2ccc(N3CCCC3)nn12 (centres undefined),-5,14,-25,5.0,17,3,5952
O=C(C=Cc1ccccc1)c1ccoc1,2,x,x,16,19,28,x
CCCC(C(=O)NC1CCCC1)N(C(=O)Cn1nnc(-c2ccc(C)o2)n1)c1ccccc1OC (centres undefined),-5,0,2,0.2,10,6,12637
CCOC(=O)N1CCN(C(=O)COC(=O)C2CCN(S(=O)(=O)c3c(C)c(C)cc(C)c3C)CC2)CC1,1,-15,-12,4.1,16,0,6053
CC(C)c1ccc(/C=C(\NC(=O)c2ccccc2)C(=O)NCCN2CCOCC2)cc1,x,-7,-18,x,x,x,6213
CC1=C(C(=O)OCc2ccccc2)C(c2ccc(Cl)cc2Cl)NC(=O)N1CCCCCC(=O)O (centres undefined),25,-5,x,18,1,-1,x
CN1CCN(c2ccccc2NC(=O)c2ccc(N3CCCC3)c([N+](=O)[O-])c2)CC1,4,4,-10,-5.8,19,10,3554
C#CCOCCOCCOCCNc1nc(N2CCN(C(=O)C(CCCCN)n3cc(C(N)CO)nn3)CC2)nc(N2CCN(C(=O)C(C(C)CC)n3cc(C(N)CO)nn3)CC2)n1 (centres undefined),-2,x,x,2.8,4,3,x
CC(C)(C)OC(=O)N1CCN(C(=O)c2[nH]cnc2C(=O)NCc2ccccc2)CC1,0,x,-1,6.6,6,12,2916
Cc1cc(NC(=O)C2C3C=CC(C3)C2C(=O)O)no1 (centres undefined),0,2,-26,1.4,3,3,7594
CCc1ccc(-c2cc(C)no2)cc1S(=O)(=O)Nc1cc(C)on1,12,8,-24,7.7,10,2,5871
O=C(Nc1ccc2[nH]ncc2c1)c1ccccc1,-2,2,-26,3.3,1,2,3388
COc1ccccc1NC(=O)N(Cc1cc2cc(OC)c(OC)cc2[nH]c1=O)CC1CCCO1 (centres undefined),2,-2,-11,-16,10,16,2992
COc1ccc(COc2ccc3ccc(=O)oc3c2)cc1,12,-4,-22,5.1,5,7,3215
Cc1oc2c(c1C(=O)N1CCOCC1)C(=O)c1ccccc1C2=O,-6,35,-8,25,18,-1,5575
CN1CCN(CCC(=O)NN=Cc2ccccn2)CC1,7,x,x,4.5,4,16,x
CCOC(=O)C1SC2(C(F)(F)F)CC1(O)c1c(C)cc(C)nc1O2 (centres undefined),5,1,0,-1.8,3,10,10857
COc1ccc(OC)c(-c2cc(C(=O)Nc3cccc(Cl)c3)no2)c1,-3,-6,-7,2.7,-2,6,10341
COc1ccc(/C(N)=N/OC(=O)c2cccc([N+](=O)[O-])c2)cc1,x,-2,-100,x,x,x,3303
CCCCN(CCCC)CC(O)CN1C(=O)NC(C)(C)C1=O (centres undefined),-1,5,-9,-1.5,2,10,3216
Cc1ccc(C(=O)c2c(NC(=O)CSc3nnc(N)s3)sc3c2CCCC3)cc1,12,-14,8,-5.4,-4,10,7538
Cc1ccc(-n2ncc3c(=O)n(CC(=O)NCc4ccco4)cnc32)cc1C,2,4,-32,4.5,4,6,5603
CN1CC2C3C(=O)N(Cc4ccccc4)C(=O)C3[C@](Cc3ccccc3)(C1=O)N2C(=O)c1ccc(C(C)(C)C)cc1 (some centres undefined),2,x,x,0.4,10,1,x
COc1cc2c(cc1NC(=O)CSc1nnnn1-c1ccccc1)oc1ccccc12,-6,-17,-6,12,-3,6,3148
CCn1c(O)c(C2=NCCCC2)c2ccccc21,0,5,-21,0.3,x,x,3377
O=C(COC(=O)c1ccc(OC(F)F)cc1)NC(=O)NC1CCCC1,7,x,-27,7.9,-2,4,4076
COc1cc(/C=N/NC(=S)Nc2cccc(S(=O)(=O)N(C)C)c2)ccc1O,x,16,-7,x,x,x,11056
CCN(CCCNC(=O)Cn1ncc2c(=O)oc3ccccc3c21)c1cccc(C)c1,-1,2,-57,2.8,-3,-1,5970
Cc1ccc2nsnc2c1NC(=O)c1cncc(Br)c1,1,-1,-9,2.0,5,5,1983
CCCCN(C(=O)CCCc1nc2ccccc2s1)c1c(N)n(CC(C)C)c(=O)[nH]c1=O,2,x,0,0.3,7,18,3895
COc1cccc(C(=O)Nc2ccccc2N2CCOCC2)c1,10,-2,-6,4.9,7,11,6679
CC(/C=C/c1ccccc1)=NNC(=O)C(O)c1ccccc1 (centres undefined),18,x,x,2.3,-4,8,x
COC(=O)c1cc(NC(=O)C2CCCN(S(=O)(=O)c3c(C)n[nH]c3C)C2)cc(C(=O)OC)c1 (centres undefined),-3,-8,x,-3.7,-3,-6,x
O=C(NCCOC12CC3CC(CC(C3)C1)C2)c1cccc(Br)c1,-13,-11,-14,-7.6,8,10,8034
Cc1nc2nc(SCc3ccc([N+](=O)[O-])cc3)[nH]c2cc1Br,7,-1,-29,5.1,3,-1,4076
CC(C)(C)c1ccc(C(=O)NNC(=O)C2CCCCC2)cc1,13,4,-27,1.2,7,5,2673
CCOc1ccccc1C=NNC(=O)c1nnn(-c2nonc2N)c1CN1CCC(C)CC1,-1,x,x,2.1,15,6,x
CSc1ncccc1C(=O)NCc1ccccc1Cl,8,0,-8,8.1,19,5,3314
COc1cc(C(=O)NCc2ncccc2C)ccc1OC1CCN(C(C)=O)CC1,0,-1,-13,-0.2,1,7,6267
CCOC(=O)c1[nH]c(C)c(C)c1C,-8,-4,0,-2.7,-2,6,10472
Cc1ccc(S(=O)(=O)NC(=NC2CCCCC2)c2ccc(Cl)cc2)cc1,3,-4,-34,-0.8,11,2,3776
COc1ccccc1N1C(=O)c2ccc(C(=O)Nc3ccc(C(=O)O)cc3)cc2C1=O,16,7,-22,2.5,17,2,3744
CCOC(=O)CCN(Cc1ccccc1)S(=O)(=O)c1csc(C(N)=O)c1,1,6,-25,0.6,-4,-6,6094
COc1cc(CN(C)C(C)C(=O)Nc2ccc([N+](=O)[O-])cc2Cl)ccc1OC(F)F (centres undefined),-4,11,-12,3.3,1,-14,1974
CCC(CC)NC(=O)CCc1nc2ccccc2c(=O)[nH]1,1,4,x,3.0,8,9,10586
O=C(O)C1CC=CCC1C(=O)NNS(=O)(=O)c1ccccc1 (centres undefined),6,-1,-11,1.8,4,-3,3637
O=[N+]([O-])c1ccc(CSc2ccc(S(=O)(=O)N3CCOCC3)cn2)cc1,6,x,-15,4.0,9,3,u
COc1cccc(C(=O)Nc2ccc(NC(=O)C(C)(C)C)cn2)c1,4,1,2,35,4,9,4028
NC(=O)c1ccsc1NC(=O)CCS(=O)(=O)c1ccc(Cl)cc1,4,x,-1,4.7,4,0,u
COc1ccc(C=NNC(=O)C2C(C=C(Cl)Cl)C2(C)C)c(OC)c1 (centres undefined),2,x,x,3.8,-14,6,x
CC(C)c1ccccc1OS(N)(=O)=O,-6,-13,-1,4.3,2,5,3721
O=C1NC(=S)NC(=O)C1C1CCCCC1,10,3,-16,3.6,6,-7,3568
COc1ccc(C2CC(=O)Oc3cc(OC)ccc32)cc1 (centres undefined),0,x,-7,3.6,-2,13,3580
CCn1c(=O)cc(N2CCOCC2)[nH]c1=O,-1,1,-21,4.9,0,-3,2037
O=C(NC(NC(=S)Nc1ccccc1C(=O)O)C(Cl)(Cl)Cl)c1cccc([N+](=O)[O-])c1 (centres undefined),-16,-20,-5,0.7,5,5,8542
CC1(C)Cc2c(c(=S)nc(-c3ccccc3)n2Cc2cccnc2)CO1,5,-7,-22,0.7,-6,-10,3785

Remaining list, next part
Compound,Sa ugtP lethal,BJeLR lethal,PrP UTR inh,Sa RN4220 lethal,Mtb hypoxia inh,Mtb hypoxia inh growth,Bead autofluor
CC1CCCCC1NC(=O)c1ccc2c(c1)OCCO2 (centres undefined),0,x,-13,0.8,21,21,4093
Cc1ccc(N2C(=O)N(CC(=O)NCc3ccc(Cl)cc3)C(=O)C2C)cc1 (centres undefined),7,-1,-26,1.6,x,x,5067
CCc1ccc2c(c1)[C@H]1OCC[C@H]1[C@@H](c1cccs1)N2,7,18,29,0.8,10,4,1963
COc1cccc(C(=O)N=c2sc3c(C)ccc(OC)c3n2C)c1,-18,15,-82,-13,8,11,6063
CCCc1nc2c(nnn2Cc2ccccc2)c(=O)[nH]1,7,-8,-2,2.4,3,-8,8361
CN(Cc1ccccc1)C(=O)COC(=O)c1ccc(Br)c(S(=O)(=O)N2CCOCC2)c1,9,x,-3,4.1,6,2,3196
Cc1noc2ncnc(N3CCN(c4ccc(F)cc4)CC3)c12,4,-9,-19,4.9,12,5,4142
O=C(c1ccccc1)N1CCN(C(=O)C23CC4CC(CC(C4)C2)C3)CC1,-5,-6,-9,1.3,x,x,3313
CCOC(=O)c1sc(=NC(=O)/C=C/c2cccs2)n(C)c1C,-1,0,-141,4.4,-10,1,3371
O=C(Nc1ccccc1N1CCCCC1)c1ccc([N+](=O)[O-])o1,26,x,-18,16,0,7,x
Cc1onc(-c2c(F)cccc2Cl)c1C(=O)NCCc1ccc(S(N)(=O)=O)cc1,10,15,-13,5.0,9,7,7609
COc1ccc(N2Cc3cccc(C(=O)N4CCOCC4)c3C2=O)cc1,0,-4,-16,-1.2,x,x,3950
Cc1ccc(S(=O)(=O)N(C)C2(C)CCS(=O)(=O)C2)cc1 (centres undefined),9,5,-7,5.4,4,-2,21402*
Cc1c(Br)c(C(F)(F)F)nn1CC(=O)NCCN1CCOCC1,1,5,-36,3.8,0,-4,11079
CCCOc1ccc(C(=O)NNC(=S)NC(=O)c2cccs2)cc1,x,4,-9,x,x,x,5220
c1ccc(Cn2nnnc2CN2CCOCC2)cc1,0,-3,-3,3.1,7,0,3264
OCCC1CC(O)C(O)[C@@]2(OCCc3ccccc32)O1 (some centres undefined),-4&3,x,x,-0.1&2.9,7&-2,14&6,x
FC(F)(F)c1ccc(Cl)c(NC2=NCCCCC2)c1,-6,-2,-18,-2.3,-7,-1,3811
O=C(NC1CCCC1)C(NS(=O)(=O)c1cccc2nsnc12)c1ccccc1 (centres undefined),9,4,-10,2.1,11,1,6020
COc1cc(C(=O)OCC(=O)Nc2c(F)c(F)c(F)c(F)c2F)cc(OC)c1OC,-9,-3,-24,-12,5,12,3257
CC(=O)c1c(C)[nH]c(C(=O)NCc2cccs2)c1C,9,9,-5,2.5,x,x,3484
Cc1cc(Cl)c(S(N)(=O)=O)cc1OCC(N)=O,7,11,-4,0.8,x,x,x
COc1cccc(CNC(=O)CN2C(=O)NC(c3ccccc3)(c3ccccc3)C2=O)c1,-3,x,-5,2.7,8,6,x
O=C(O)c1cccnc1SCc1ccccc1Cl,5,1,-17,5.9,-6,8,3241
Cc1cccc(CCN(C(=O)Cc2cccs2)C(C(=O)NC2CCCCC2)c2cccnc2)c1 (centres undefined),-6,10,-13,-1.0,-4,-7,15958
Clc1ccc(-c2csc(N3CCC(c4ccccc4)C3)n2)cc1 (centres undefined),21,-2,-54,-11,x,x,4778
COc1ccccc1-c1ccc(SCc2ccccc2F)nn1,-1,-8,-46,2.7,-1,-2,3444
COc1ccc(C=NNC(=O)c2cccc([N+](=O)[O-])c2)cc1OC,9,x,x,1.1,17,8,x
Cc1cccc(NC(=O)CSc2nnc(C)c(=O)n2N)c1,2,2,-19,8.0,0,-2,3910
CSC1=N/C(=C\c2ccccc2C)C(=O)S1,8,6,-25,3.1,3,-1,3093
Cn1c(=O)c(-c2cccc(Cl)c2)c(O)c2ccccc21,2,12,-7,2.8,7,12,4023
